Screening data: PubChem BioAssay, National Center for Advancing Translational Sciences (NCATS)
VACV mCherry inh – inhibitors of vaccinia virus infection (mCherry reporter signal); Vaccinia virus mCherry reporter infection, fluorescence; about a quarter of the inactives have no number; Potency, µM (titrated, usually from 36.5 µM), for inactives: at the top dose activity change, negative = inhibition, hits mostly inhibitors; 0.63% of 310,000 active; active = well fitted inhibition curve with a large enough effect; inconclusive = small, poorly fitted or top-dose-only effect; inactive = no such curve, though single readings can be large or run the other way; tested in A549 cells; also: nearly all actives have a fitted effect of over 35% in size; inactives centre near -10
Vaccinia Venus – inhibitors of vaccinia virus (Venus reporter); 0.46% of 330,000 active; Potency, µM (doses to about 36.5 µM), inactives show at the highest dose activity change, negative = inhibition, most hits filed as inhibitors; Vaccinia virus Venus reporter expression, fluorescence; active means well fitted inhibition curve with a large enough effect; inconclusive means small, poorly fitted or top-dose-only effect; inactive means no such curve, though single readings can be large or run the other way; tested in A549 cells; also: nearly all actives have a fitted effect of over 30% in size; inactives centre near -10
* hit, by the source's call; & = joins results of further samples. % is scaled to controls: 0 for no effect and ±100 for the full control effect; potency is read from the fitted curve at half-maximal effect.

Screening O=C(CSc1nnc(CNC(=O)c2ccc(F)cc2)o1)NCC1CCCO1 (stereo not given) returned VACV mCherry inh inactive and Vaccinia Venus -15%.
COc1ccc(-c2nc3scc(CCNS(=O)(=O)c4ccc(F)cc4F)n3n2)cc1OC was read as VACV mCherry inh -9% and Vaccinia Venus -9%.
Screening CCOC(=O)c1oc2c(CN3CCN(CCO)CC3)c(O)c(CC)cc2c(=O)c1-c1nc2ccccc2s1 returned VACV mCherry inh -1% and Vaccinia Venus -15%.
`O=[N+]([O-])c1cc(Cl)ccc1N1CCN(c2ccccc2O)CC1` gave VACV mCherry inh -21% and Vaccinia Venus -16%.
Screening CN(C(=O)CSc1nc(C2CC2)n(-c2ccccc2)n1)C1CCS(=O)(=O)C1 (stereo not given) returned VACV mCherry inh -18% and Vaccinia Venus -10%.
For CN(C)c1ccc(CNC(=O)c2cc3ccccn3n2)cc1 the results were VACV mCherry inh -14% and Vaccinia Venus 7%.
Screening CCc1nc2ccc(C(=O)N(CC)CCN(C)C)cn2c1N(C)CCCc1ccccc1 returned VACV mCherry inh inactive and Vaccinia Venus -18%.
CC(=O)c1ccc(NC(=O)C2CCCN(S(=O)(=O)c3c(C)[nH]c(=O)[nH]c3=O)C2)cc1 (stereo not given) was read as VACV mCherry inh -7% and Vaccinia Venus -9%.
COc1cc2cc(C#N)c(SCC(=O)N3CCOCC3)nc2cc1OC was read as VACV mCherry inh inactive and Vaccinia Venus -14%.
For CCOc1ccc(CNC(=O)CCc2cn(CC)c3ccccc23)cc1 the results were VACV mCherry inh -3% and Vaccinia Venus 0%.
COCc1cc(/C=N\NC(=O)Cc2ccc(OC)cc2)ccc1OC was read as VACV mCherry inh inactive and Vaccinia Venus -3%.
Screening CC(=O)N1c2ccc(S(=O)(=O)NCC3CCC(C(=O)Nc4ccc(C)cc4)CC3)cc2CC1C (stereo not given) returned VACV mCherry inh -13% and Vaccinia Venus -23%.
`CCOC(=O)C1CCCN(S(=O)(=O)c2ccc(Br)s2)C1` (stereo not given) gave VACV mCherry inh inactive and Vaccinia Venus -1%.
`Cc1ccc(-c2c3c(=O)n(C)c(=O)n(C)c3c3c(C)nc4ccccc4n23)cc1` gave VACV mCherry inh -5% and Vaccinia Venus 5%.
Screening O=C(Nc1cccc(C(F)(F)F)c1)Nc1nnc([C@H]2C[C@H](O)[C@@H](CO)O2)s1 returned VACV mCherry inh 30% and Vaccinia Venus 11%.

A portion from the list above:
Screening CC(=O)N1c2ccc(S(=O)(=O)NCC3CCC(C(=O)Nc4ccc(C)cc4)CC3)cc2CC1C (stereo not given) returned VACV mCherry inh -13% and Vaccinia Venus -23%.
`CCOC(=O)C1CCCN(S(=O)(=O)c2ccc(Br)s2)C1` (stereo not given) gave VACV mCherry inh inactive and Vaccinia Venus -1%.
`Cc1ccc(-c2c3c(=O)n(C)c(=O)n(C)c3c3c(C)nc4ccccc4n23)cc1` gave VACV mCherry inh -5% and Vaccinia Venus 5%.
Screening O=C(Nc1cccc(C(F)(F)F)c1)Nc1nnc([C@H]2C[C@H](O)[C@@H](CO)O2)s1 returned VACV mCherry inh 30% and Vaccinia Venus 11%.

New compounds follow:
CCOC(=O)c1ccc(Nc2ncnc3ccccc23)cc1 was read as VACV mCherry inh -12% and Vaccinia Venus -10%.
`COC(=O)c1ccccc1NC(=O)CSc1n[nH]c(-c2cccnc2)n1` gave VACV mCherry inh inactive and Vaccinia Venus -9%.
Screening CCOC(=O)CC1C(=O)NCCN1C(=O)NC1CCCCC1 (stereo not given) returned VACV mCherry inh -12% and Vaccinia Venus -4%.
CCCCN1C2=NCCCN2c2cc(C)c(C)cc21 was read as Vaccinia Venus -14%.
Screening Cc1ccc(C)c(-n2cc(-c3ccc(Cl)cc3)nc2SCC(=O)NC2CCS(=O)(=O)C2)c1 (stereo not given) returned VACV mCherry inh -4% and Vaccinia Venus -5%.
Cc1noc(C)c1COC(=O)c1ccc2c(c1)OCO2 was read as VACV mCherry inh -23% and Vaccinia Venus -22%.
COCCOc1ccc(C(F)(F)F)cc1NC(=O)CN1C(=O)NC(C)(c2ccc3c(c2)OCO3)C1=O (stereo not given) was read as VACV mCherry inh -24% and Vaccinia Venus inconclusive.
For COc1ccccc1NC(=O)Nc1nn(C)c2cccc(OC)c12 the results were VACV mCherry inh inactive and Vaccinia Venus -3%.
COc1ccc(NC(=O)COC(=O)C2CCN(S(=O)(=O)c3ccccc3)CC2)cc1Cl was read as VACV mCherry inh -15% and Vaccinia Venus -9%.
Screening COc1ccc(OC)c2nc3c(C(=O)NCCN(C)C)cccc3nc12 returned VACV mCherry inh inconclusive and Vaccinia Venus inconclusive.
`COC(=O)c1cc(=O)n(CCc2ccc(OC)cc2)c(=Nc2ccc(F)c(Cl)c2)s1` gave VACV mCherry inh -18% and Vaccinia Venus -1%.
`CCn1c(-c2ccc(OC)c(OC)c2)n[nH]c1=S` gave VACV mCherry inh -16% and Vaccinia Venus -3%.
Screening COCCn1c(-c2cccs2)csc1=Nc1cccnc1 returned VACV mCherry inh inactive and Vaccinia Venus -20%.
For CCCOc1ccc(C(=O)N2CC3(CC(c4cccc(NC(=O)[C@@H]5CCC(=O)N5)c4)=NO3)C[C@H]2C(=O)NC2(C(N)=O)CC2)cc1 (stereo not given in full) the results were VACV mCherry inh inactive and Vaccinia Venus -4%.
`O=C(COc1ccc(Cl)cc1Cl)N/N=C/C1CC=CCC1` (stereo not given) gave VACV mCherry inh inconclusive and Vaccinia Venus -11%.

Four records drawn at random from those above:
`O=C(COc1ccc(Cl)cc1Cl)N/N=C/C1CC=CCC1` (stereo not given) gave VACV mCherry inh inconclusive and Vaccinia Venus -11%.
`COC(=O)c1ccccc1NC(=O)CSc1n[nH]c(-c2cccnc2)n1` gave VACV mCherry inh inactive and Vaccinia Venus -9%.
Screening COc1ccc(OC)c2nc3c(C(=O)NCCN(C)C)cccc3nc12 returned VACV mCherry inh inconclusive and Vaccinia Venus inconclusive.
Screening COCCn1c(-c2cccs2)csc1=Nc1cccnc1 returned VACV mCherry inh inactive and Vaccinia Venus -20%.

Next section:
`O=S(=O)(NCC1CCN(c2ccc(S(=O)(=O)N3CCOCC3)cc2)CC1)c1ccccc1` gave VACV mCherry inh -25% and Vaccinia Venus -21%.
For CC(Oc1ccc(F)cc1)C(=O)Nc1ccccc1C(=O)NC1CC1 (stereo not given) the results were VACV mCherry inh inactive and Vaccinia Venus -13%.
`O=C(NCc1cc(Cl)cc(Cl)c1)c1ccc2nc([C@@H]3O[C@H](CO)[C@@H](O)[C@H]3O)[nH]c2c1` gave VACV mCherry inh inactive and Vaccinia Venus -6%.
CC(OC(=O)CN1C(=O)NC2(CCCC2)C1=O)C(=O)Nc1cccc(Cl)c1Cl (stereo not given) was read as VACV mCherry inh inactive and Vaccinia Venus -8%.
For COc1ccc(CNC(=O)N2CCN(c3cccc(C)c3C)CC2)cc1OC the results were VACV mCherry inh -28% and Vaccinia Venus -17%.
For COc1ccc(N2C(=O)c3ccccc3NC(=O)C2C(=O)NCCc2ccccc2F)cc1 (stereo not given) the results were VACV mCherry inh -15% and Vaccinia Venus 0%.
Screening COc1ccc(NC(=O)NC2(C(=O)N3CCCC(C)C3)CCCCC2)cc1 (stereo not given) returned VACV mCherry inh 4% and Vaccinia Venus -2%.
Screening CN(C(=O)COC(=O)C1COc2ccccc2O1)c1c(N)n(Cc2ccccc2)c(=O)[nH]c1=O (stereo not given) returned VACV mCherry inh -11% and Vaccinia Venus 1%.
Cc1ccc(NS(=O)(=O)c2ccc3[nH]c4c(c3c2)CCCCC4)cc1 was read as VACV mCherry inh -8% and Vaccinia Venus -17%.
Screening O=C(CNc1ccc2ccccc2c1)N/N=C/c1ccccn1 returned VACV mCherry inh inconclusive and Vaccinia Venus -5%.
`O=C(O)c1cc(S(=O)(=O)N2CCCCC2)ccc1N1CCOCC1` gave VACV mCherry inh -10% and Vaccinia Venus 4%.
For COc1ccccc1Cc1c(-c2ccco2)nc2c(C)cc(Br)cn12 the results were VACV mCherry inh inactive and Vaccinia Venus -4%.
For O=C1C2C3c4ccccc4C(c4ccccc43)[C@@H]2c2nc3ccccc3n21 (stereo not given in full) the results were Vaccinia Venus -24%.
Screening Cc1cccc(C(=O)Nc2ccc3nc(SCCOc4ccccc4)sc3c2)c1 returned VACV mCherry inh -15% and Vaccinia Venus -15%.
`Cc1ccc(-c2ccnc(-n3ncc(C(=O)N4CCCCC4c4cccnc4)c3C3CC3)n2)o1` (stereo not given) gave VACV mCherry inh -7% and Vaccinia Venus inconclusive.
Cc1ccc(N2CCN(C3=NC(=O)/C(=C\c4cccs4)S3)CC2)cc1 was read as VACV mCherry inh inconclusive and Vaccinia Venus -18%.
Screening Cc1ccccc1C(=O)NC1CCN(C(=O)NC2CCCCC2)CC1 returned VACV mCherry inh -14% and Vaccinia Venus -6%.
Screening CC(C)Oc1ccc(S(=O)(=O)N2CCOCC2)cc1NC(=O)C(C)Oc1ccc(F)cc1 (stereo not given) returned VACV mCherry inh -5% and Vaccinia Venus -13%.
O=C(CN(C(=O)CCC(=O)Nc1nccs1)c1ccc(F)c(Cl)c1)NCC1CCCO1 (stereo not given) was read as VACV mCherry inh inactive and Vaccinia Venus 1%.
For COc1cc2c(cc1OC)C(c1cc(OC)c(OC)c(OC)c1)NCC2 (stereo not given) the results were VACV mCherry inh -16% and Vaccinia Venus -14%.
Screening Cc1ccnc(NC(=O)/C=C/c2ccccc2Cl)c1 returned VACV mCherry inh -12% and Vaccinia Venus 3%.
For CCOCCn1c(CN2CCN(c3ccc(OC)cc3)CC2)nc2c1c(=O)n(C)c(=O)n2C the results were VACV mCherry inh -12% and Vaccinia Venus -7%.
For Cc1ccc(-n2ncc3c(=O)[nH]c(SCC(=O)N4CCCCC4)nc32)cc1 the results were VACV mCherry inh -7% and Vaccinia Venus -3%.
O=C(COC(=O)c1ccccc1C(=O)c1ccccc1)Nc1ccc(SC(F)F)cc1 was read as VACV mCherry inh -9% and Vaccinia Venus -29%.
Screening Cc1cnc(C(=O)N2CCN(c3ccc(C(F)(F)F)cn3)CC2)cn1 returned VACV mCherry inh -17% and Vaccinia Venus -12%.
For CCOC(=O)c1c(C)[nH]c(CCC(=O)NCc2cccc(OC)c2)c1C the results were VACV mCherry inh -9% and Vaccinia Venus -12%.
For Cc1c(NC(=O)c2c(NC(=O)CNC3CC3)sc3c2CCCC3)c(=O)n(-c2ccccc2)n1C the results were VACV mCherry inh -7% and Vaccinia Venus 0%.
`CC1=C(C(=O)N2CCOCC2)CC(CC(=O)NCc2cccs2)C(=O)N1CCC1=CCCCC1` (stereo not given) gave VACV mCherry inh -8% and Vaccinia Venus 8%.
`CCOC(=O)c1cc2c(=O)n3ccccc3nc2n(CCOC)c1=NC(=O)C(C)(C)Oc1ccc(Cl)cc1` gave VACV mCherry inh 0% and Vaccinia Venus -9%.
Screening Cc1ccc(NC(=O)NCc2ccc3c(c2)OCO3)c(C)c1 returned VACV mCherry inh -6% and Vaccinia Venus -7%.
Screening Oc1ccccc1-c1nnc(COc2ccc(Cl)cc2Cl)o1 returned VACV mCherry inh -19% and Vaccinia Venus -15%.
For O=C(NCc1ccccc1)C1=C[C@H](c2ccc(Br)cc2)C[C@H](OCc2ccc(CO)cc2)O1 the results were VACV mCherry inh -7% and Vaccinia Venus -18%.
Cc1ccc(S(=O)(=O)c2cc(N3CCOCC3)nc(-c3ccccc3)n2)cc1 was read as VACV mCherry inh inactive and Vaccinia Venus -2%.
For CCCCCCCCN1[C@@H](CC(=O)O)c2ccc(C(F)(F)F)cc2S1(=O)=O the results were VACV mCherry inh inactive and Vaccinia Venus -6%&-11%.
S=C(NCCN1CCOCC1)N/N=C/c1c2ccccc2cc2ccccc12 was read as VACV mCherry inh -29% and Vaccinia Venus inconclusive.
C[C@H](CO)N1C[C@H](C)[C@@H](CN(C)Cc2ccncc2)Oc2c(NS(=O)(=O)c3cn(C)cn3)cccc2C1=O was read as VACV mCherry inh inactive and Vaccinia Venus -6%.
Screening CC1Cc2ccccc2N1C(=O)COc1ccc2c(c1)OCO2 (stereo not given) returned VACV mCherry inh -5% and Vaccinia Venus -14%.
Screening O=C(NC1CCCCCC1)c1cc2ccccc2oc1=O returned VACV mCherry inh inactive and Vaccinia Venus -5%.
Screening CCCCNCC1C(Oc2ccc(Cl)cc2)C(=O)N1c1ccccc1C (stereo not given) returned VACV mCherry inh inactive and Vaccinia Venus inconclusive.
For O=C(Nc1cccnc1)c1ccc(Br)c(S(=O)(=O)N2CCCC2)c1 the results were VACV mCherry inh -5% and Vaccinia Venus -21%.
CC(=O)N1CCC(C(=O)N2c3ccccc3N=C(c3ccc4c(c3)OCO4)C2C(=O)NCc2ccccc2)CC1 (stereo not given) was read as VACV mCherry inh -2% and Vaccinia Venus -8%.
For O=c1cc(-c2ccccc2Cl)oc2cccc(O)c12 the results were VACV mCherry inh -5% and Vaccinia Venus -30%.
CCN1CCN(S(=O)(=O)c2ccc(OC)c(Br)c2)CC1 was read as VACV mCherry inh -8% and Vaccinia Venus 2%.
`Cc1cc(OCc2cc(C(=O)N(Cc3nccn3C)C(C)C)no2)cc(C)c1Cl` gave VACV mCherry inh inconclusive and Vaccinia Venus -24%.
Screening O=C(Nc1cccnc1)c1cnc2ccccc2n1 returned Vaccinia Venus -6%.

By substructure: the compounds so far containing a furan ring, fused or not.
For COc1ccccc1Cc1c(-c2ccco2)nc2c(C)cc(Br)cn12 the results were VACV mCherry inh inactive and Vaccinia Venus -4%.
`Cc1ccc(-c2ccnc(-n3ncc(C(=O)N4CCCCC4c4cccnc4)c3C3CC3)n2)o1` (stereo not given) gave VACV mCherry inh -7% and Vaccinia Venus inconclusive.
